Calb biofilm kill – mixtures killing C. albicans biofilm; C. albicans biofilm persisters + clotrimazole, fluorescence viability; primary screen in compound mixtures of four per well; inhibition, % at 7.6 µM; 120,000 compounds, 0.02% hits; AID 1242;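 active = inhibition above 30.3% in the primary screen of four-compound pools, then above 30% when the compound was retested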;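 note: compounds exposed to preformed 24 h biofilms for 48 h; the number belongs to the whole pool; some results filed as inactive read as strong as hits; inactives centre near 12; 0% = biofilm with clotrimazole alone and 100% = kill control; retested singly at about 60 µM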
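Probe or stimulus – Clotrimazole 50 µg/mL co-treatment · System – C. albicans biofilms · Schedule – 24 h biofilm formation, then 48 h compound exposure, 37 °C · Evaluation – percent inhibition of biofilm viability · Technique – 2-h Alamar Blue fluorescence, 535/590 nm excitation/emission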
Active calls of the source: *. Only part of the results is shown. The share of hits here may be higher or lower than overall.

SMILES	Calb biofilm kill
COc1cccc(C2C3=C(Nc4[nH]n(-c5ccccc5)c(=O)c42)c2ccccc2C3=O)c1 (stereo unspecified)	-1
CCO/C=C/C(O)(CNC(=O)c1ccc(C(C)(C)C)cc1)C(F)(F)F (stereo unspecified)	20
CCC(Sc1nc2ccccc2o1)C(=O)Nc1nnc(C)s1 (stereo unspecified)	9
O=C(CCN1C(=O)/C(=C/c2ccc(F)cc2)SC1=S)NNC(=O)c1ccncc1	-9
Cc1ccc(CN(Cc2ccco2)C(=S)NCC(=O)NC2CC2)cc1	16
CCOCCCNC(=O)COC(=O)/C=C/c1ccc(S(=O)(=O)N2CCc3ccccc32)cc1	8
Cc1ccc(-c2nc(-c3ccccn3)sc2CC(=O)O)cc1	7
O=C1CC(c2ccccc2)CC(=NCCO)/C1=C(\O)CCCN1C(=O)c2ccccc2C1=O (stereo unspecified)	15
COC(=O)c1c(NC(=O)COC(=O)c2ccc(Cl)cc2[N+](=O)[O-])sc2c1CCCCC2	22
CC(C)[C@H](NC(=O)c1ccco1)C(=O)OCc1cc(=O)n2c(n1)sc1ccccc12	10
Cc1ccc(N/N=C(\C#N)C(=O)c2ccsc2)cc1	10
CCOC(=O)c1c(C)n(-c2ccc(OC)cc2)c2ccc(O)c(CN(C)C)c12	25
O=C(CC1SC(=Nc2ccccc2)N(Cc2ccccn2)C1=O)Nc1ccc(Br)cc1 (stereo unspecified)	18
CN(Cc1ccccc1)C(=O)C1CCCN1S(=O)(=O)c1ccc2c(c1)n(C)c(=O)c(=O)n2C (stereo unspecified)	24
O=C(c1cc2sccc2n1Cc1ccc(F)cc1)N1CCN(c2nc3ccccc3s2)CC1	8
Cc1ccc(C(=O)N/C(=C/c2cccnc2)C(=O)O)cc1	0
COc1cc(OC)c(C(=O)OCC(=O)Nc2cc(C)on2)cc1OC	2
Cc1nnc2n(c1=O)C(CS(=O)(=O)c1ccc3ccccc3c1)CS2 (stereo unspecified)	13
CC/C(=N/OC(=O)c1cccc(C)c1)C(=O)c1cccs1	7
CCOC(=O)c1ccc(N/C(=N\S(=O)(=O)c2ccc(F)cc2F)c2ccccc2)cc1	5
Cc1sc2ncnc(SCC(=O)N(C)C3CCS(=O)(=O)C3)c2c1C (stereo unspecified)	9
Cc1ccc2c(c1)N(C(C)C(=O)NCc1ccccn1)C(=O)CO2 (stereo unspecified)	20
CC(C)CC(C(=O)OCC(=O)c1c(N)n(C)c(=O)n(C)c1=O)N1C(=O)C2CC=CCC2C1=O (stereo unspecified)	15
c1ccc2nc(SCc3cn4ccccc4n3)cnc2c1	9
CC(=O)Nc1sc2c(c1C#N)CCC2	14
More records:
SMILES	Calb biofilm kill
Cc1ccc(OCCN(C)C(=O)CC2C(=O)NCCN2CC(C)(C)C)cc1 (stereo unspecified)	-3
CC1CCN(c2c([N+](=O)[O-])c(=O)oc3ccccc23)CC1	14
CC(OC(=O)C1=Cc2ccccc2OC1)C(=O)NCc1ccco1 (stereo unspecified)	18
NC(=O)CNc1ncc(C(F)(F)F)cc1Cl	-8
CCC(=O)NC(c1cccc([N+](=O)[O-])c1)c1c(OC(C)=O)ccc2ccccc12 (stereo unspecified)	8
CCOC(=O)CNC(=O)N1CCCC(CCC(=O)NCc2ccc(F)c(F)c2)C1 (stereo unspecified)	8
Cc1nn(Cc2ccc(Cl)cc2)c(Cl)c1/C=N/NC(=O)c1cccnc1	14
O=C(Nc1ccc(Cl)c(-c2nc3ccccc3[nH]2)c1)c1ccc2c(c1)OCO2	13
Cc1ccc(/C=N/N=C2/NC(=O)C(CC(=O)Nc3ccccc3)S2)o1 (stereo unspecified)	10
CCCCNC(=O)c1nn2cc(Br)cnc2c1Br	14
CCN(C(=S)NC(=O)C1CCCC1)C1CCCCC1	4
Cc1cc(C)cc(-n2cc[nH]c2=S)c1	8
O=C(COC(=O)CCc1nc2ccccc2c(=O)[nH]1)Nc1ccc(N2CCOCC2)cc1	31
Fc1ccc(-c2ccc(Nc3cccc(F)c3)nn2)cc1	8
N#C/C(=C\c1ccc(F)cc1)c1nc(-c2ccco2)cs1	15
O=C(O)c1ccc2c(c1)N(Cc1ccc(F)cc1)C(=O)c1ccccc1S2	-2
CCOC(=O)CSc1n[nH]c(NS(=O)(=O)c2ccccc2C(F)(F)F)n1	-2
NNC(=O)c1cc(O)c(O)c(O)c1	-1
CC1CCC/C(=C(\C#N)c2nc(-c3cc4ccccc4oc3=O)cs2)C1 (stereo unspecified)	15
Cn1c(NC(=O)c2ccc(Cl)s2)cc(=O)n(C)c1=O	14
Cc1cccc(C(=O)NCCc2n[nH]c(=S)n2C)c1	14
CC(C)(C)c1cnnn1-c1ccc([N+](=O)[O-])cc1	4
O=C(CCc1nnc(CCCCc2ccccc2)o1)NCc1cccc(F)c1	6
CC(=O)NCCCc1nc2ccccc2n1Cc1c(F)cccc1Cl	-10
Cc1ccccc1NS(=O)(=O)c1ccc(OCC(=O)NCc2ccccn2)cc1	13
Later entries
SMILES	Calb biofilm kill
NC(=O)C1CCN(CC(=O)NC(=O)NC2CCCC2)CC1	1
O=C(NCc1ccncc1)c1nc(-c2ccc(C(F)(F)F)cc2)no1	8
O=C(CCCN1C(=O)c2ccccc2C1=O)Nc1cccc(S(=O)(=O)NC2=NCCC2)c1	5
COc1cc(/C=N\NC(=O)C2COc3ccccc3O2)cc(OC)c1O (stereo unspecified)	19
CCN(CC)CCCNC(=O)c1cn(CC)c2ccc(S(=O)(=O)N3CCc4ccccc4C3)cc2c1=O	10
CC(=O)Nc1ccc(Oc2cncc(Cl)c2)nc1	25
CSCCC(NC(=O)c1ccccc1Br)C(=O)Nc1ccc(C)cc1 (stereo unspecified)	11
CCOC(=O)CSc1nc(=O)n2ccc(C)cc2n1	2
CCCc1nc2c(c(=O)c3ccccc3n2C)c(=O)n1-c1ccc(F)cc1	-2
Cc1ccccc1NC(=O)C1CCN(c2cnccn2)CC1	12
C/C(=N\Nc1nc2ccccc2nc1C)c1ccccc1O	16
COc1cccc(/C=N/n2c(-c3n[nH]c4c3CCC4)n[nH]c2=S)c1OC	21
Cc1c(Cl)c(-c2n[nH]c(=S)n2CC(C)C)nn1C	11
NC(N)=NS(=O)(=O)c1ccc(N/C=C\C(=O)c2ccncc2)cc1	30
COCCCNC(=O)c1sc2ncn(CC(=O)Nc3ccc(C)c(Cl)c3)c(=O)c2c1C	-3
Cc1ccccc1C(=O)Nc1cccc(C#N)c1	9
COC(CNC(=O)c1ccc2c(c1)ncn2-c1ccc(F)cc1F)OC	13
Clc1ccc(SCCOCCN2CCCCC2)cc1	5
CC(=O)c1ccc(NC(=O)CN2C(=O)/C(=C/C(C)=C/c3ccccc3)SC2=S)cc1	10
COc1cccc(-c2nc(Oc3cccc(C)c3C)c3ccccc3n2)c1O	22
COc1ccc(-c2csc(Cc3nc(O)cs3)n2)cc1	22
CC1(c2nnc(-c3ccc(F)cc3)o2)CC(c2ccc([N+](=O)[O-])cc2)=NO1 (stereo unspecified)	15
O=C(CSCc1ccccc1)N1CCN(Cc2ccc3c(c2)OCO3)CC1	7
C#C[C@]1(O)CC[C@H]2[C@@H]3CCc4cc(OC)ccc4[C@H]3CC[C@@]21C	32
CCCC(=O)Nc1ccc(C(=O)N/N=C/c2ccc([N+](=O)[O-])o2)cc1	21

Taken from above:
Cc1c(Cl)c(-c2n[nH]c(=S)n2CC(C)C)nn1C @ Calb biofilm kill: 11
CCCc1nc2c(c(=O)c3ccccc3n2C)c(=O)n1-c1ccc(F)cc1 @ Calb biofilm kill: -2

Next part
SMILES	Calb biofilm kill
CN1CC(=O)N(CC(=O)Nc2ccc3c(c2)CCC3)C1=O	5
O=C(CSCc1ccccc1Br)N/N=C/c1ccc(OCC(=O)N2CCCCC2)cc1	15
Cc1oc(CC(C)C)cc1C(N)=O	12
Cc1nc2cc(NS(=O)(=O)c3cccc(F)c3)ccc2s1	12
O=C(NCCN1CCCC1)c1cccc(Cl)c1	-11
COc1ccc(NC(=O)CNS(=O)(=O)c2ccc(Cl)cc2)cc1OC	-11
COc1ccccc1C(C)NC(=O)CCOc1cccc(C)c1 (stereo unspecified)	13
O=C(O)/C=C/c1ccc2c(-c3ccccc3)onc2c1	7
CN(CCNC(=O)c1ccc(/C=N/O)nc1)Cc1ccccc1	19
COc1ccc(Cl)cc1NC(=S)NCCSc1ccc(C)cc1	12
CC(C)CNS(=O)(=O)c1ccc(CCC(=O)N2CCC(C(N)=O)CC2)cc1	24
Cc1csc(C(=O)O)c1-c1c(C)csc1C(=O)O	7
Cc1cccc(NC(=O)c2onc3c2CCCC3)n1	9
COc1ccccc1NS(=O)(=O)c1cc(NC(=O)CNC(=O)c2ccccc2)ccc1C	6
O=C(Nc1ccc([N+](=O)[O-])cn1)C1CCCCC1	14
COc1ccccc1N1CC(C(=O)Nc2nnc(SCc3ccccn3)s2)CC1=O (stereo unspecified)	9
COCCNC(=O)c1cccc(Nc2nc(-c3ccccc3)c3cc(Cl)ccc3n2)c1	3
CCN(CC)S(=O)(=O)c1ccc(N/N=C(\C)c2ccc3c(c2)OCO3)c([N+](=O)[O-])c1	13
Nc1nc(CN2CCN(C(c3ccccc3)c3ccccc3)CC2)nc(Nc2ccccc2)n1	12
C[C@H](CO)NC(=O)[C@H](C)[C@@H]1C[C@@]1(C)[C@@H](NC(=O)OCc1ccccc1)c1ccccc1	15
COc1ccc(-c2cc(=O)oc3cc(OC(=O)C4CCCCC4)ccc23)cc1	16
O=C(NNc1nc2ccccc2s1)Nc1ccc(F)cc1	6
C/C(CCN1CCc2nc(-c3ccccc3)c(-c3ccccc3)cc2C1)=N\O[C@H](C)c1cn([C@H](CO)Cc2ccccc2)nn1	19
Cc1ccc(S(=O)(=O)N2CCCC2C(=O)NCCc2ccccc2)cc1 (stereo unspecified)	24
Cc1cc(NC(=O)CCN2C(=O)/C(=C\c3ccccc3)SC2=S)no1	12

Grouped by structure: the entries above containing two or more sulfur atoms.
SMILES	Calb biofilm kill
CCC(Sc1nc2ccccc2o1)C(=O)Nc1nnc(C)s1 (stereo unspecified)	9
O=C(CCN1C(=O)/C(=C/c2ccc(F)cc2)SC1=S)NNC(=O)c1ccncc1	-9
O=C(c1cc2sccc2n1Cc1ccc(F)cc1)N1CCN(c2nc3ccccc3s2)CC1	8
Cc1nnc2n(c1=O)C(CS(=O)(=O)c1ccc3ccccc3c1)CS2 (stereo unspecified)	13
Cc1sc2ncnc(SCC(=O)N(C)C3CCS(=O)(=O)C3)c2c1C (stereo unspecified)	9
CCOC(=O)CSc1n[nH]c(NS(=O)(=O)c2ccccc2C(F)(F)F)n1	-2
CC(=O)c1ccc(NC(=O)CN2C(=O)/C(=C/C(C)=C/c3ccccc3)SC2=S)cc1	10
COc1ccc(-c2csc(Cc3nc(O)cs3)n2)cc1	22
Cc1nc2cc(NS(=O)(=O)c3cccc(F)c3)ccc2s1	12
COc1ccc(Cl)cc1NC(=S)NCCSc1ccc(C)cc1	12
Cc1csc(C(=O)O)c1-c1c(C)csc1C(=O)O	7
COc1ccccc1N1CC(C(=O)Nc2nnc(SCc3ccccn3)s2)CC1=O (stereo unspecified)	9
Cc1cc(NC(=O)CCN2C(=O)/C(=C\c3ccccc3)SC2=S)no1	12

Next records.
SMILES	Calb biofilm kill
COC(=O)/C(=C\c1cc(OC)c(OC)c(OC)c1)c1nc2ccccc2[nH]1	15
CCCn1c(SCC(=O)N2CCN(C(=O)c3ccco3)CC2)nc2ccccc2c1=O	7
Cc1csc2c(N3CCN(S(=O)(=O)c4ccc(Cl)cc4)CC3)ncnc12	18
CCOC(=O)N1CCN(C(=S)NC(=O)c2ccnn2C)CC1	13
CCCCCN(C(=O)CCCSc1nncs1)c1c(N)n(CCCC)c(=O)[nH]c1=O	18
CC1(C)OC(c2ccccc2)=C/C(=C/C=Nc2ccccc2)O1	16
COc1ccc(C(NC(=O)c2ccc(=O)[nH]c2)C(=O)Nc2ccc(C(C)C)cc2)cc1 (stereo unspecified)	6
CCCCCC(=O)Nc1cccc(C2=NOC3(C2)C[C@H](C(N)=O)N(C(=O)CC)C3)c1 (stereo partly specified)	15
CCOc1ccc(Br)cc1S(=O)(=O)N1CCC(C(N)=O)CC1	17
CCC(C)(C)NC(=O)C(c1cccc(OC)c1OC)N(CCC(C)C)C(=O)CCC(=O)Nc1cc(C)on1 (stereo unspecified)	12
CC(C)(C)OC(=O)NCCCC[C@H](NC(=O)c1nc[nH]c1C(=O)N1CCN(C(=O)OC(C)(C)C)CC1)C(=O)OC(C)(C)C	20
O=C(NNC1=Nc2cc([N+](=O)[O-])ccc2OC1)c1ccccc1Cl	12
CCc1sc(C(=O)Nc2ccc(NC(C)=O)cc2)cc1C	17
CC(=Nc1cc(C(=O)c2ccccc2)ccc1N)C1=C(O)CC(C)(C)CC1=O	17
O=C(CCCCCNc1nc(=S)[nH]c2ccccc12)NCCc1ccccc1	7
O=C(O)CC(Sc1n[nH]c(=S)s1)C(=O)O (stereo unspecified)	-6
COc1ccc(NC(=S)NCc2ccccn2)cc1OC	16
O=C(Nc1nnc(-c2ccccc2Cl)o1)c1cc2cc([N+](=O)[O-])ccc2s1	12
COc1ccccc1NC(=O)C(=O)NNS(=O)(=O)c1ccc2ccccc2c1	18
Cc1cccc2c1CC(C)(C)NC2=C(C#N)C#N	8
COc1cccc(NC(=O)C(c2ccccc2)N2CCCC2)c1 (stereo unspecified)	12
O=C(NCCc1ccccc1)C(=O)Nc1ccc2c(c1)OCCO2	8
Cc1cc(C)nc(NC(=O)c2ccc(COc3ccccc3Cl)cc2)c1	13
O=C(CCc1nnc(COc2ccccc2)o1)NCCc1cccs1	11
O=C(Nc1ccc(F)cc1)c1cc(-c2ccccc2)no1	3
Cc1cccc2cc(COC(=O)c3cccs3)c(=O)[nH]c12	13
CCOc1ccc(-n2c(SCC(=O)Nc3ccc(Br)cc3)nc3n[nH]c(C)c3c2=N)cc1	20
CCOC(=O)c1ccc(NC(=S)N2CCN(Cc3ccccc3)CC2)cc1	24
